Source: PubChem BioAssay
rRNA inh HTS: inhibits bacterial ribosomal RNA function over humanized ribosomes | GFP signal change (wild-type ribosome), % (concentration not given with the values) | 350,000 tested, 1.6% active | E. coli WT GFP vs humanized-ribosome RFP mutants, fluorescence, 24 h; active compounds read low; DMSO median 0, no signal -100;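 active = significant combined selectivity score with lowered wild-type GFP, culture density cut under 30%, mutant RFP and density less affected; inactive = any of these conditions unmet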; note: one replicate is shown; some compounds called inactive have numbers as strong as hits
FGF22 binding: shifts melting point of recombinant human FGF22; Q9HCT0; recombinant FGF22 thermal shift, SYPRO orange fluorescence; percent of sucrose octasulfate shift, DMSO zero; calls only at 9.99 µM; 340,000 tested, 1.5% active;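 active = melting point raised past a set limit in the mean and every replicate; three in four hits are not shown here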
Target sequence (Q9HCT0 whole entry, looked up): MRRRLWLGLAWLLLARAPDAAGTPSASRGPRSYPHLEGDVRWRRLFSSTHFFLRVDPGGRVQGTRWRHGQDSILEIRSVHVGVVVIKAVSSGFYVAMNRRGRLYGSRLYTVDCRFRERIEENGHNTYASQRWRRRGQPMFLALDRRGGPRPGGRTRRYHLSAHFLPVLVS
rRNA inh HTS OD600: further read-out of rRNA inh HTS, marked with its call; OD600 change, %; measured here: OD600 growth;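 optical density of the mix in the first replicate; 0 = DMSO median and -100 = no signal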
rRNA inh HTS RFP: second read-out of rRNA inh HTS, no call of its own (marks repeat the call); RFP signal change, %; measured here: RFP humanized mutant strains;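 first replicate; 0 = DMSO median and -100 = no signal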
The depositor's hits bear a star; i = inactive. An excerpt; count on the stated rates, not on these rows.

cpd	structure	rRNA inh HTS	rRNA inh HTS OD600	rRNA inh HTS RFP	FGF22 binding
1	CC(C)NC(=O)NC[C@H]1[C@@H](c2ccccc2)[C@@H](CO)N1C(=O)c1ccccc1	0	-2	-3.7	i
2	CCCN1C[C@H](C)[C@H](OC)CN(C)C(=O)c2ccc(NC(=O)CC(F)(F)F)cc2OC[C@@H]1C	1	2	-0.2	i
3	COc1ccc(NC(=O)N(C)C[C@H]2OCCCC[C@@H](C)Oc3ccc(NS(=O)(=O)c4c(C)noc4C)cc3C(=O)N([C@H](C)CO)C[C@@H]2C)cc1	3	2	-0.4	i
4	O=C(C[C@@H]1CC[C@@H](NC(=O)Nc2ccc(C(F)(F)F)cc2)[C@@H](CO)O1)NCc1cccc(F)c1	-4	-2	2.3	i
5	C[C@@H]1CN([C@@H](C)CO)C(=O)c2cc(NC(=O)NC3CCCCC3)ccc2O[C@H]1CN(C)C(=O)Nc1cccc2ccccc12	3	4	1.3	i
6	CCN1[C@@H]2c3ccc(-c4ccc(F)cc4)c(=O)n3C[C@H]1[C@H](CO)[C@H]2C(=O)Nc1nccs1	-1	-6	-1.8	i
7	N#C[C@H]1[C@H](c2ccc(-c3ccccc3F)cc2)[C@H](CO)N1C(=O)C1CC1	1	2	-0.3	i
8	COC(=O)C[C@@H]1C[C@H]2c3cc(NC(=O)Nc4ccccc4)ccc3O[C@H]2[C@H](CO)O1	7	8	4.8	i
9	C[C@@H]1CCCCO[C@H](CN(C)C(=O)Nc2ccc3c(c2)OCO3)[C@H](C)CN([C@H](C)CO)C(=O)c2cc(NS(=O)(=O)c3cccs3)ccc2O1	-1	8	-0.2	i
10	CCC(=O)N1CC2(CN(Cc3ccc(Cl)cc3)C2)c2c([nH]c3cc(OC)ccc23)[C@H]1CO	0	-29	1.3	i
11	O=C(NCC[C@H]1CC[C@@H](NS(=O)(=O)c2ccccc2)[C@@H](CO)O1)c1cc(Cl)cc(Cl)c1	0	-8	1.5	i
12	O=C(NCC[C@H]1CC[C@H](NC(=O)C2CC2)[C@@H](CO)O1)Nc1ccc(C(F)(F)F)cc1	-57	-76	-16	i
13	C[C@@H]1CN([C@H](C)CO)C(=O)c2cc(-c3ccncc3)cnc2O[C@@H]1CN(C)S(=O)(=O)c1ccccc1	-1	5	-4.1	i
14	C[C@H]1CN([C@@H](C)CO)S(=O)(=O)c2ccc(Br)cc2O[C@H]1CN(C)C(=O)CC1CC1	-2	2	-0.1	i
15	N#Cc1cccc(-c2ccc([C@@H]3[C@H]4CN(C(=O)Nc5ccccc5)CCCCN4[C@H]3CO)cc2)c1	4	14	16	i
16	C[C@@H]1CN([C@H](C)CO)S(=O)(=O)c2ccc(-c3cccnc3)cc2O[C@H]1CN(C)Cc1ccccn1	-1	-14	-1.8	i
17	CO[C@H]1CN(C)C(=O)c2cc(NC(=O)NC3CCCCC3)ccc2OC[C@@H](C)N(CC2CC2)C[C@@H]1C	2	4	-1.4	i
18	C[C@@H]1CN([C@H](C)CO)C(=O)c2cccc(NC(=O)c3cnccn3)c2O[C@@H]1CN(C)C(=O)Nc1ccccc1	1	2	0.0	i
19	CCC(=O)N(CC)C[C@H]1[C@H](c2ccccc2)[C@@H](CO)N1C(=O)C1CCC1	0	5	-0.5	i
20	COc1ccc(NC(=O)N(C)C[C@@H]2Oc3cc(C#CCC(C)C)ccc3S(=O)(=O)N([C@@H](C)CO)C[C@@H]2C)cc1	-2	-2	-0.1	i
21	C[C@H]1CN([C@@H](C)CO)S(=O)(=O)c2ccc(C#CC3CC3)cc2O[C@H]1CN(C)Cc1cccnc1	-1	1	6.1	i
22	Cc1ccc(S(=O)(=O)Nc2cccc3c2O[C@H](CN(C)C(=O)NC2CCCCC2)[C@H](C)CN([C@H](C)CO)C3=O)cc1	-5	-6	-4.6	i
23	COc1ccc(S(=O)(=O)N(C)C[C@@H]2OCCCC[C@H](C)Oc3ccc(NS(=O)(=O)c4ccc(F)cc4)cc3C(=O)N([C@H](C)CO)C[C@@H]2C)cc1	0	-3	-0.7	i
24	C[C@@H]1CCCCO[C@H](CN(C)C(=O)CCC(F)(F)F)[C@@H](C)CN([C@H](C)CO)C(=O)c2cc(NS(=O)(=O)c3ccc(Cl)cc3)ccc2O1	3	-7	-3.1	i
25	CC=Cc1ccc2n(c1=O)C[C@@H]1[C@@H](CO)[C@H](C(=O)NCC3CC3)[C@H]2N1Cc1ccccc1OC (mixture of isomers)	0	4	-3.0	i
26	O=C(C[C@@H]1CC[C@H](NC(=O)Nc2cc(F)ccc2F)[C@@H](CO)O1)NCCCN1CCOCC1	7	11	0.5	i
27	CCC(=O)N(C)C[C@H]1Oc2cc(-c3ccc(C)cc3)ccc2S(=O)(=O)N([C@H](C)CO)C[C@H]1C	-7	-15	7.6	i
28	CC(C)NC(=O)N(C)C[C@@H]1Oc2c(NC(=O)NC3CCCCC3)cccc2C(=O)N([C@H](C)CO)C[C@@H]1C	1	3	-1.6	i
29	COc1cccc(-c2ccc3n(c2=O)C[C@H]2[C@H](CO)[C@@H](C(=O)N(C)C)N(C(=O)C4CC4)[C@@H]32)c1	1	10	1.5	i
30	COc1cccc(-c2ccc3c(c2)O[C@H](CN(C)C(=O)C2CCCCC2)[C@@H](C)CN([C@H](C)CO)S3(=O)=O)c1	-4	-14	4.1	i
31	COc1cccc(NC(=O)N[C@@H]2C=C[C@H](CC(=O)N3CCN(C)CC3)O[C@H]2CO)c1	0	-2	0.1	i
32	CC(C)NC(=O)N(C)C[C@@H]1OCc2ccccc2-c2c(n(C)c3ccccc23)C(=O)N([C@@H](C)CO)C[C@H]1C	2	-6	-9.0	i

Limited to rRNA inh HTS, FGF22 binding and rRNA inh HTS OD600, for 2 of the compounds above:
entry | mol | rRNA inh HTS | FGF22 binding | rRNA inh HTS OD600
29 | COc1cccc(-c2ccc3n(c2=O)C[C@H]2[C@H](CO)[C@@H](C(=O)N(C)C)N(C(=O)C4CC4)[C@@H]32)c1 | 1 | i | 10
30 | COc1cccc(-c2ccc3c(c2)O[C@H](CN(C)C(=O)C2CCCCC2)[C@@H](C)CN([C@H](C)CO)S3(=O)=O)c1 | -4 | i | -14

Continuation.
cpd	structure	rRNA inh HTS	rRNA inh HTS OD600	rRNA inh HTS RFP	FGF22 binding
33	O=C(c1cccc(F)c1)N1CCCCN2[C@H](CO)[C@@H](c3ccc(-c4cccnc4)cc3)[C@H]2C1	1	7	2.0	i
34	N#C[C@@H]1[C@H](c2ccc(-c3ccccc3F)cc2)[C@H](CO)N1C(=O)C1CC1	1	4	0.1	i
35	C[C@@H]1CN([C@@H](C)CO)C(=O)c2cc(NS(=O)(=O)c3cn(C)cn3)ccc2O[C@@H]1CN(C)S(=O)(=O)c1ccccc1	7	6	-3.1	i
36	C[C@H]1CN([C@@H](C)CO)C(=O)c2cc(NC(=O)Cc3ccccc3)ccc2O[C@@H]1CN(C)S(C)(=O)=O	3	1	-0.1	i
37	OCc1ccccc1OCc1ccccc1	15	16	1.7	i
38	COCC(=O)N1C[C@H](C)[C@@H](OC)CN(C)C(=O)c2ccc(NC(=O)Nc3cccc(F)c3)cc2OC[C@@H]1C	-2	-17	0.1	i
39	C[C@H]1CN([C@@H](C)CO)C(=O)c2cc(NC(=O)Cc3ccccc3)ccc2O[C@H]1CN(C)S(=O)(=O)c1ccc(Cl)cc1	1	-7	1.4	i
40	O=C(c1ccc(F)cc1)N1CCCCN2[C@H](C1)[C@@H](c1ccc(/C=C/c3ccccc3)cc1)[C@@H]2CO	-1	13	0.7	i
41	CNC[C@@H]1Oc2cc(C#Cc3ccccc3)ccc2S(=O)(=O)N([C@@H](C)CO)C[C@H]1C	7	10	-1.8	i
42	CC(C)CC#Cc1ccc2c(c1)O[C@@H](CN(C)C(=O)c1cccc(F)c1)[C@H](C)CN([C@H](C)CO)S2(=O)=O	-2	-11	1.9	i
43	C[C@@H]1CN([C@@H](C)CO)C(=O)c2cc(NC(=O)c3ccncc3)ccc2O[C@@H](C)CCCCO[C@@H]1CN(C)Cc1ccc(C(=O)O)cc1	2	15	0.0	i
44	C[C@@H]1CN([C@@H](C)CO)C(=O)c2cc(-c3cncnc3)cnc2O[C@@H]1CN(C)Cc1ccncc1	3	15	-4.9	i
45	COc1ccc(NC(=O)N(C)C[C@H]2Oc3c(NS(=O)(=O)c4ccc(F)cc4)cccc3C(=O)N([C@H](C)CO)C[C@H]2C)cc1	4	1	1.8	i
46	COc1ccc(C#Cc2ccc([C@H]3[C@H]4CN(C(=O)Nc5ccccc5F)CCCCN4[C@H]3CO)cc2)cc1	-2	1	0.7	i
47	C/C=C/c1ccc2c(c1)O[C@H](CN(C)C(=O)NC1CCCC1)[C@@H](C)CN([C@@H](C)CO)S2(=O)=O	3	1	1.9	i
48	COc1ccc(NC(=O)N(C)C[C@@H]2Oc3ccc(NC(=O)Nc4ccc(F)cc4)cc3CC(=O)N([C@@H](C)CO)C[C@@H]2C)cc1	2	-2	-1.0	i

Quoted at random: 5 compounds from above
cpd	structure	rRNA inh HTS	rRNA inh HTS OD600	rRNA inh HTS RFP	FGF22 binding
45	COc1ccc(NC(=O)N(C)C[C@H]2Oc3c(NS(=O)(=O)c4ccc(F)cc4)cccc3C(=O)N([C@H](C)CO)C[C@H]2C)cc1	4	1	1.8	i
41	CNC[C@@H]1Oc2cc(C#Cc3ccccc3)ccc2S(=O)(=O)N([C@@H](C)CO)C[C@H]1C	7	10	-1.8	i
46	COc1ccc(C#Cc2ccc([C@H]3[C@H]4CN(C(=O)Nc5ccccc5F)CCCCN4[C@H]3CO)cc2)cc1	-2	1	0.7	i
47	C/C=C/c1ccc2c(c1)O[C@H](CN(C)C(=O)NC1CCCC1)[C@@H](C)CN([C@@H](C)CO)S2(=O)=O	3	1	1.9	i
44	C[C@@H]1CN([C@@H](C)CO)C(=O)c2cc(-c3cncnc3)cnc2O[C@@H]1CN(C)Cc1ccncc1	3	15	-4.9	i

More structures follow.
cpd	structure	rRNA inh HTS	rRNA inh HTS OD600	rRNA inh HTS RFP	FGF22 binding
49	COc1ccc(S(=O)(=O)N(C)C[C@H]2Oc3ccc(NC(=O)NC4CCCCC4)cc3CC(=O)N([C@@H](C)CO)C[C@H]2C)cc1	-1	-13	1.7	i
50	Cc1noc(C)c1NC(=O)Nc1ccc2c(c1)C(=O)N([C@H](C)CO)C[C@H](C)[C@@H](CN(C)C(=O)Nc1ccccc1)OCCCC[C@H](C)O2	1	3	-1.0	i
51	COc1cccc(NC(=O)N[C@@H]2CC[C@@H](CC(=O)NCc3ccncn3)O[C@H]2CO)c1	3	10	-3.5	i
52	O=C(C[C@@H]1CC[C@H](NC(=O)C2CC2)[C@H](CO)O1)NCCCN1CCOCC1	2	2	-2.2	i
53	CO[C@H]1CC[C@@H]2CCOc3ccc(C#N)cc3C(=O)N(C)C[C@H](c3ccccc3)CC(=O)N(C)C[C@H]1O2	6	11	-2.6	i
54	C/C=C/c1ccc([C@@H]2[C@H](CO)N(Cc3cncnc3)C23CN(C(=O)COC)C3)cc1	4	9	0.5	i
55	COCC#Cc1cnc2c(c1)C(=O)N([C@H](C)CO)C[C@H](C)[C@@H](CN(C)C(=O)c1ccc3c(c1)OCO3)O2	3	6	-1.0	i
56	CCCNC(=O)N1CC2(C1)CN(C(=O)c1ccncc1)[C@H](CO)c1[nH]c3cc(OC)ccc3c12	6	12	-3.8	i

Arranged by length of the SMILES (largest number first): three of the compounds above.
cpd	structure	rRNA inh HTS	rRNA inh HTS OD600	rRNA inh HTS RFP	FGF22 binding
49	COc1ccc(S(=O)(=O)N(C)C[C@H]2Oc3ccc(NC(=O)NC4CCCCC4)cc3CC(=O)N([C@@H](C)CO)C[C@H]2C)cc1	-1	-13	1.7	i
53	CO[C@H]1CC[C@@H]2CCOc3ccc(C#N)cc3C(=O)N(C)C[C@H](c3ccccc3)CC(=O)N(C)C[C@H]1O2	6	11	-2.6	i
51	COc1cccc(NC(=O)N[C@@H]2CC[C@@H](CC(=O)NCc3ccncn3)O[C@H]2CO)c1	3	10	-3.5	i
